Assay outcomes (PubChem BioAssay)
PrP 5UTR inh: inhibition of PrP 5' UTR reporter expression. inhibition, % (test concentration not listed). cell-based PrP 5' UTR mRNA reporter, plate reader. 340,000 compounds, 0.35% hits;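 active = every replicate at 50% or more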;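 note: 0 = median of the neutral control wells; tested in H4 reporter cells; numbers are from one replicate; inactives centre near -14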
Autofluor counter: counter-screen for toxin protease inhibitors: compound fluorescence; compound autofluorescence counterscreen, microsphere flow cytometry; stronger effect = higher value; 360,000 compounds, 3.1% hits; AID 624483; fluorescence intensity (concentration not given with the values);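 active = at least 3 SD above the mean of all compounds, about 16000 in these data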;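 note: 100 nL of 1 mM stock went into each well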
BJeLR viability: MLPCN primary cell-based screen for lethality selective to Ras in HRASV12 cells | 300,000 compounds, 0.17% hits | inhibition, % (concentration not given with the values) | BJeLR (HRASV12) viability, CellTiter-Glo ATP luminescence, 48 h; reference of the scale not given here;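 active = replicate mean above 50%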;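 note: 50 nL library stock added to about 25 µL; numbers are from one replicate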
Sa ugtP lethal: growth inhibition of ugtP-null S. aureus, primary screen, RN4220 ugtP deletion, OD600 | 16 h; some inactives read as strong as hits | growth inhibition, % (concentration not given with the values) | 330,000 compounds, 0.54% hits | AID 1259309, 2017;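 active = z-score under -3 and OD600 up to 0.15 on both plates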;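 note: plate controls were untreated wells for no effect and antibiotic for full effect; wells of about 80 µL received 100 nL stock; the first replicate is given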
RN4220 kill: growth inhibition of S. aureus RN4220, primary screen, OD600; 16 h; inhibition, % (concentration not given with the values); 330,000 compounds, 0.33% hits;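 active = z-score of -3 or lower and OD600 up to 0.18 on both plates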;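 note: plate controls were untreated cells for no effect and reference antibiotic for full effect; stock transfer was 100 nL into about 80 µL; one replicate is shown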
Mtb hypoxia rep: PubChem AID 1159583; M. tuberculosis hypoxia-regulated fluorescent reporter, fluorescence; fluorescence inhibition, % (concentration not given with the values); 300,000 compounds, 0.1% hits;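 active = 35 to 45% if threefold the growth effect, above 45% if 1.5-fold the growth effect; inactive = the rest, general growth blockers included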;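 note: wells of about 50 µL received 100 nL stock; 0% = vehicle wells and 100% = reference inhibitor wells; whole bacteria with a GFP reporter of the hypoxia response; strong numbers were not always called active; many hits fall short of the cut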
Mtb hypoxia rep growth: second read-out of Mtb hypoxia rep, no call of its own (marks repeat the call); growth inhibition, %; measured here: M. tuberculosis growth (absorbance);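 0% = vehicle and 100% = reference antibiotic; read after six days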
Starred values were filed as active, the others as inactive; · = no result given; & = joins results of further samples.

SMILES	PrP 5UTR inh	Autofluor counter	BJeLR viability	Sa ugtP lethal	RN4220 kill	Mtb hypoxia rep	Mtb hypoxia rep growth
Cc1ccc(OCCN(C)C)c([N+](=O)[O-])c1	11	1930	3	0	2.1	3	5
O=C1CN(C(=O)C=Cc2cccc(Cl)c2)c2ccccc2N1	·	·	·	-3	6.0	9	2
Cc1cc(NC(=O)CSc2nnc(-c3ccco3)n2CC2CCCO2)no1 (stereo not given)	-1	11296	2	0	3.0	-9	17
O=C(CC1C(=O)NCCN1Cc1ccc(-c2ccccc2)cc1)NCc1ccncc1 (stereo not given)	-21	2885	2	3	4.8	12	5
C/C(=N/NC(=O)CNC(=O)c1ccco1)c1ccco1	-9	4447	1	·	·	·	·
Cn1c(N2CCOCC2)nc(-c2ccccc2)c1-c1ccccc1	-18	13043	-3	1	3.4	5	6
CN(C(=O)c1sc2nc(N3CCCC3)c3c(c2c1N)CC(C)(C)OC3)c1ccccc1	-21	·	-6	36	-1.8	7	5
O=C(CSc1nc2nccnc2c(=O)n1Cc1cccs1)Nc1ccccc1F	-24	5598	-5	·	·	·	·
CC1(C)Cc2cccc(C(=O)Nc3ccc(Cl)cc3)c2O1	-29	4518	1	2	-5.0	9	10
Cc1ccc(Cl)cc1NC(=S)N(Cc1ccccc1)Cc1cccnc1	-7	3514	0	0	17	6	4

Some values from the results shown:
In Mtb hypoxia rep growth, O=C1CN(C(=O)C=Cc2cccc(Cl)c2)c2ccccc2N1 is listed with 2
In RN4220 kill, CC1(C)Cc2cccc(C(=O)Nc3ccc(Cl)cc3)c2O1 is listed with -5.0
In BJeLR viability, Cc1ccc(Cl)cc1NC(=S)N(Cc1ccccc1)Cc1cccnc1 is listed with 0
In Mtb hypoxia rep growth, Cc1ccc(OCCN(C)C)c([N+](=O)[O-])c1 is listed with 5
In Sa ugtP lethal, Cn1c(N2CCOCC2)nc(-c2ccccc2)c1-c1ccccc1 is listed with 1

5 compounds out of the list, sorted by molar mass, lowest first.
SMILES	PrP 5UTR inh	Autofluor counter	BJeLR viability	Sa ugtP lethal	RN4220 kill	Mtb hypoxia rep	Mtb hypoxia rep growth
Cc1ccc(OCCN(C)C)c([N+](=O)[O-])c1	11	1930	3	0	2.1	3	5
C/C(=N/NC(=O)CNC(=O)c1ccco1)c1ccco1	-9	4447	1	·	·	·	·
Cc1cc(NC(=O)CSc2nnc(-c3ccco3)n2CC2CCCO2)no1 (stereo not given)	-1	11296	2	0	3.0	-9	17
O=C(CSc1nc2nccnc2c(=O)n1Cc1cccs1)Nc1ccccc1F	-24	5598	-5	·	·	·	·
CN(C(=O)c1sc2nc(N3CCCC3)c3c(c2c1N)CC(C)(C)OC3)c1ccccc1	-21	·	-6	36	-1.8	7	5

Compound profiles (already shown). Screens in order: PrP 5UTR inh, Autofluor counter, BJeLR viability, Sa ugtP lethal, RN4220 kill, Mtb hypoxia rep, Mtb hypoxia rep growth
`Cc1ccc(Cl)cc1NC(=S)N(Cc1ccccc1)Cc1cccnc1` as listed: -7, 3514, 0, 0, 17, 6, 4
`Cn1c(N2CCOCC2)nc(-c2ccccc2)c1-c1ccccc1` as listed: -18, 13043, -3, 1, 3.4, 5, 6

Next part.
SMILES	PrP 5UTR inh	Autofluor counter	BJeLR viability	Sa ugtP lethal	RN4220 kill	Mtb hypoxia rep	Mtb hypoxia rep growth
O=C(Cn1nc(Cl)nc1Cl)c1ccc2c(c1)OCCO2	-4	3221	-1	9	5.3	6	1
CS(=O)(=O)N(CC(=O)Nc1ccccc1Sc1ccccc1)c1cccc(Br)c1	-17	3423	-8	-14	-12	14	8
Cc1ccc(CSCCNC(=O)CCSc2ccccc2)cc1	-13	2799	5	9	2.4	·	·
N#CC(C#N)=C/C=C(\Nc1ccc(Cl)cc1)c1ccc(Cl)cc1	-26	6149	6	-3	-0.4	9	14
O=C(Nc1cccc(-c2cn3ccccc3n2)c1)c1cccs1	-32	2469	3	-1	5.6	7	8
O=C(O)CN1C(=O)C(=O)N(Cc2ccc(C(F)(F)F)cc2)C1=O	-14	2963	0	-2	-3.0	-8	10
Cc1cc(OCC(O)CN2CCN(C)CC2)ccc1C(C)C (stereo not given)	-3&-9	4145&4446	-3	-1&8	3.6&4.9	6	6
O=S(=O)(/N=C(/NNS(=O)(=O)c1ccccc1)c1ccccc1)c1ccccc1	-11	4059	0	11	5.5	4	9
O=C(NCc1nnc(SCC(=O)N2CCC(Cc3ccccc3)CC2)o1)c1ccccc1F	-32	6360	8	·	·	·	·
CC(C)[C@H](NC(=O)OCc1ccccc1)C(=O)OCC(=O)NCc1ccco1	·	2811	·	-4	-3.4	-1	6
CCOC(=O)c1cc(C#N)c(=S)[nH]c1C	-26	4474	8	1	7.5	10	7
COc1cc(C(=S)N2CCOCC2)ccc1OC(=O)c1ccccc1	-6	3593	5	7	1.6	-3	10
CC(C)(C)OC(=O)N1CCC(CC2CC(c3ccccc3)=NO2)(C(=O)NCc2ccccc2)CC1 (stereo not given)	-40	4123	·	10	3.8	11	9
COc1cccc(N2CCN(C(=O)c3cccc(NC4=NC5CS(=O)(=O)CC5S4)c3)CC2)c1 (stereo not given)	-24	5254	0	8	2.4	·	·
CCOC(=O)CNc1ccc2c(c1)OCO2	-20	4221	11	12	-0.5	1	-6
Cc1cc(OCC(=O)NCc2ccncc2)c2c3c(c(=O)oc2c1)CCCC3	-12	5770	-8	9	3.5	14	0
CC1(C)CC(=O)C/C(=N\NC(=O)C2C3CCCCC32)C1 (stereo not given)	-12	2659	-7	·	·	·	·
Cc1cccc2c1NC(C)CC2C (stereo not given)	-29	2139	14	4	-1.5	·	·
COc1ccc(C2CC(c3cccs3)=NN2C(=O)CSc2nc3c(cnn3-c3ccccc3)c(=O)[nH]2)cc1 (stereo not given)	-16	5881	-13	-30	-19	4	8
Cc1sc(NC(=O)c2cccc([N+](=O)[O-])c2)c(C(N)=O)c1-c1ccc(C(C)(C)C)cc1	-13	4197	3	-16	4.3	·	·
CCn1ncc(C(=O)Nc2ccc(F)cc2)c1C	-54	6022	-1	12	3.1	15	8
CCOc1cc(C(=S)N2CCCCC2)ccc1OS(=O)(=O)c1ccc(Cl)cc1	-21	5340	6	1	6.7	4	11
O=C(Cn1cnc2ccccc21)c1ccc(Br)cc1	-27	4504	-2	2	-1.0	-1	13
COC(=O)c1ccccc1NC(=O)Cn1cnc2c(cnn2-c2ccccc2)c1=O	-33	9725	6	1	1.6	4	11
CCCN1C(=O)c2cc(C(=O)Nc3ccccc3CC)ccc2C1O (stereo not given)	4	4249	3	4	2.7	·	·
C/C(CC(=O)Nc1ccccn1)=N\NC(=O)c1ccc([N+](=O)[O-])cc1Cl	-11	5927	-8	·	·	·	·
CCN(C[C@H]1N[C@@](Cc2ccccc2)(C(=O)OC)[C@H]2C(=O)N(Cc3ccccc3)C(=O)[C@@H]12)C(=O)Nc1ccc(F)cc1	-12	3825	·	-5	-1.5	0	13
COc1ccccc1OCCn1cc(/C=C(\C#N)C(=O)NCc2cccs2)c2ccccc21	3	2284	-3	-1	4.1	5	4
COc1[nH]c(N=Cc2ccccc2)c(C#N)c1C#N	·	·	·	1	5.3	-84	-35
N#CCCn1cc(/C=N/NC(N)=S)c(-c2ccc(Br)cc2)n1	-32	3325	4	·	·	·	·
Cc1ccc(-c2nc(C3CCN(S(=O)(=O)c4ccc(C(F)(F)F)cc4)CC3)no2)cc1	-40	3365	-4	2	10	9	5
Cc1onc(-c2ccccc2)c1C(=O)OCC(=O)N(C)c1ccccc1	4	3639	·	-3	-2.3	-12	12
CCCn1c(SCC(=O)c2ccc(OC)c(OC)c2)nc2c1c(=O)n(C)c(=O)n2C	-24	2968	-8	4	14	-9	-4
Cc1csc(NC(=O)Cc2ccccc2Cl)n1	-53	5955	0	0	4.0	6	2
COCc1nnc(NC(=O)c2ccc(Cl)cc2[N+](=O)[O-])s1	-28	2011	-14	6	4.8	11	-1
S=c1[nH]nc(-c2ccco2)n1N=Cc1ccc(Br)s1	·	·	·	4	23	-2	9
CCN1C(=O)S/C(=C/c2ccsc2)C1=O	-17	3588	6	14	21	·	·
COc1ccccc1C=NNC(=O)c1ccccc1OCCOc1ccccc1	2	3403	·	-4	5.7	9	17
CCC(=O)N=c1ccn(C2=Nc3ccccc3NC2=C(C#N)C#N)cc1	-29	4807	-10	0	3.0	-3	0
CC(=O)NC(Cc1ccc(N(CCCl)CCCl)cc1)C(=O)NC(CC(C)C)C(=O)O (stereo not given)	-19	3518	-6	-5	-2.1	-3	-13
Cc1noc(C)c1COc1ccccc1C(=O)N1CCN(S(=O)(=O)c2cccc([N+](=O)[O-])c2)CC1	-27	3535	·	1	10	10	2
COc1ccc(/C=C/C(=O)Nc2ccccc2F)cc1S(=O)(=O)N1CCOCC1	-11	2974	·	6	2.2	7	4
O=C(NC1CCCCCC1)C1CCCN(c2ncccn2)C1 (stereo not given)	-20	4520	-1	·	·	·	·
O=C(Nc1cccs1)NC1CCCC1	-15	3254	-1	-3	-15	16	5
COC(=O)c1nc(NC(=S)NC(=O)c2cccs2)sc1C	-21	5947	0	·	·	·	·
Cc1ccc2nc(Nc3ccc(C)c(C)c3)c3nncn3c2c1	-40	4016	3	-12	-2.4	2	1
OC(CNCCCCNCC(O)C(F)(F)F)C(F)(F)F (stereo not given)	-19	4558	-2	9	6.3	6	0
COc1cccc(OC)c1C(=O)N1CCN(S(=O)(=O)c2ccc(C)cc2)CC1	-13	2240	-3	2	2.3	·	·
CCOCCCNC(=S)N1CCC(NC(=O)C23CC4CC(CC(C4)C2)C3)CC1	-8	3905	7	-65	3.2	15	4
Cc1nn(-c2ccccc2)c(C)c1/C=C/C(=O)OC(C)C(=O)Nc1ncc(Cl)cc1Cl (stereo not given)	-22	11039	-1	-5	2.8	12	2

New compounds follow:
SMILES	PrP 5UTR inh	Autofluor counter	BJeLR viability	Sa ugtP lethal	RN4220 kill	Mtb hypoxia rep	Mtb hypoxia rep growth
c1ccc2nc(N3CCN(Cc4ccc5c(c4)OCO5)CC3)cnc2c1	-13	4529	-1	5	5.9	9	3
Cc1ccccc1NC(=O)Cn1cnc2c(oc3ccccc32)c1=O	-18	4243	-1	1	0.7	-1	6
CC(NC(=O)Cc1c(F)cccc1Cl)C1CCCO1 (stereo not given)	-14	10930	7	-1	3.3	-3	9
Cc1ccsc1C(=O)NNC(=S)NC1CCCCC1	-19	5700	-1	3	7.0	14	7
COC(=O)c1ccccc1NC(=O)Cn1c(-c2nonc2N)nc2ccccc21	70*	20173*	18	13	1.7	5	-5
FC(F)(F)c1cccc(NC(=S)NCC2COc3ccccc3O2)c1 (stereo not given)	-19	1934	12	83*	54	-9	2
CS(=O)(=O)NCC(c1ccco1)N1CCN(c2ccc(F)cc2)CC1 (stereo not given)	-25	2620	-5	7	1.7	13	5
COc1cc(SC)ccc1C(=O)Nc1ccc2c(c1)OCO2	-127	3354	5	3	3.3	5	12
Cc1cc(C)cc(N(C(=O)c2csnn2)C(C(=O)NC2CCCC2)c2ccccn2)c1 (stereo not given)	2	3109	-1	-2	-2.2	2	0
CC(C=NNc1ccc([N+](=O)[O-])cn1)=Cc1ccccc1	-37	3853	·	5	4.4	22	9
O=[N+]([O-])c1ccccc1Oc1ccc(S(=O)(=O)N2CCOCC2)cc1	-25	3741	·	-6	-3.2	-1	12
COc1ccc(N2CCN(C(=O)C3CCCN(S(=O)(=O)c4ccc(F)cc4)C3)CC2)cc1 (stereo not given)	-21	5273	1	0	0.4	3	11
CN(C)c1ccc(C=NNc2cccc(C(=O)O)c2)cc1	·	·	·	15	7.8	4	13
COc1ccc(-c2noc(CCC(=O)NC3CCCCC3)n2)cc1	-14	5648	4	5	-2.4	5	9
O=C(CCC(=O)OCc1ccc([N+](=O)[O-])cc1)Nc1ccc(F)cc1	-7	2472	-4	13	-0.5	7	6
CC(C)c1ccc(N2C=Nc3ccc(C(C)C)cc3C2)cc1	-25	4584	9	-8	11	-4	6
